TRPML1 ag = qHTS for Agonists of the Human Mucolipin Transient Receptor Potential 1 (TRPML1) | Mucolipin-1 (Homo sapiens), Q9GZU1 | TRPML1-expressing cells, Ca2+ dye fluorescence, FDSS; host cell line not named in the record; reference of the full effect not given here | activation, % (test concentration not listed) | 410,000 compounds, 0.12% hits; in the data active = activation above about 50%; inconclusive = about 30% to 50%; inactive = below about 30%; also: 0% is about no effect; the text of the record puts the active cut at 80%
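Cells: TRPML1-DL, 1X Tet inducer, ~16 h at 37 degrees C/5% CO2. Dye: ABD Ca8 no-wash + quencher, 45-90 min RT. Read: 10 s baseline, compound add, 110 s agonist phase; 54-4 EC80 (4uM final), 110 s antagonist phase.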
TRPML1 blocker = qHTS for Inhibitors of the Human Mucolipin Transient Receptor Potential 1 (TRPML1); TRPML1-inducible cells, Ca2+ dye fluorescence, FDSS; stronger effect = lower value; inhibition of EC80 agonist-evoked calcium signal; activity change, negative = inhibition, % (concentration not given with the values); Mucolipin-1 (Homo sapiens), Q9GZU1; 390,000 compounds, 0.02% hits; in the data active means activity change below about -50%; inconclusive means about -30% to -50%; inactive means above about -30%;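 also: stimulus is agonist 54-4 at its EC80 concentration; % is scaled to controls: 0 for no effect and ±100 for the full control effect; the text of the record puts the active cut at -80%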
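Calcium fluorescence in TRPML1-DL cells induced overnight with Tet: a 110 s read after compound pin addition, then a 110 s antagonist read after challenge with 54-4 at 4 uM final (EC80).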
CtBP-E1A inh = qHTS Assay for Inhibitors of the CtBP/E1A Interaction; activity change, % (concentration not given with the values); CtBP / adenovirus E1A interaction (AlphaScreen); AID 651724, 2012; 340,000 compounds, 0.49% hits; AlphaScreen GST-E1A/His-CtBP binding, 1536-well; stronger effect = lower value; control for the full effect not named in the record; in the data active means activity change below about -65%; inconclusive means about -30% to -65%; inactive means above about -30%; also: % is scaled to controls: 0 for no effect and ±100 for the full control effect
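Steps: dispense buffer (Tris pH 8.0, NaCl 300 mM, TCEP 1 mM, BSA, Tween 20); add 5X protein mix (GST-E1A, His-CtBP, 125 nM each); pin 23 nL compound; 2 h at 37 °C, dark; add 5X beads (50 ug/mL); 1 h; read.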
TRPV1 PAM = HTS Assay for Compounds that Act as Potentiators of the Vanilloid Receptor 1. AID 540277, 2011. potentiation, % at 8.33 µM. 320,000 compounds, 0.02% hits. TRPV1-expressing cells, Fluo-8 calcium influx, capsaicin EC20 potentiation; host cell line not named in the record; control for the full effect not named in the record. Transient receptor potential cation channel subfamily V member 1 (Homo sapiens), Q8NER1; active means potentiation above 80%; inconclusive means 30% to 80%; inactive means below 30%; also: 0% is about no effect
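Fluo-8 calcium influx in TRPV1-expressing cells, kinetic read (ex 480/em 520 nm). Compound added and read 3 min for agonist activity, followed by capsaicin at EC20 final and 2 min further read for enhancement.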
D2 PAM = Beta-Arrestin HTS for Positive Allosteric Modulators of the Human D2 Dopamine Receptor: Potentiators; DiscoveRx D2 beta-arrestin cells, luminescence, 90 min; 100% = 57 uM dopamine signal; AID 624464, 2012; 360,000 compounds, 0.23% hits; potentiation, % (test concentration not listed); D(2) dopamine receptor (Homo sapiens), P14416; active = potentiation of 50% or more; inconclusive = 30% to 50%; inactive = 30% or less;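 also: compound concentration not given in the record; tested on top of an EC20 dose of dopamine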
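PathHunter D2 cells, attached overnight at 37 deg C, received compound in DMSO plus dopamine at EC20 (50 nM final) for 90 min at 37 deg C. Beta-arrestin recruitment was read as luminescence after 1 h with detection reagent at ambient temperature.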
Six1-Eya2 blk = qHTS Assay for Inhibitors of the Six1/Eya2 Interaction; Homeobox protein SIX1 (Homo sapiens) + Protein phosphatase EYA2 (Homo sapiens), …; AlphaScreen GST-Six1/His-Eya2 binding, biochemical; stronger effect = lower value; control for the full effect not named in the record; activity change, % (no concentration beside the values); 360,000 compounds, 0.56% hits; in the data active = activity change below about -65%; inconclusive = about -30% to -65%; inactive = above about -30%; also: % is scaled to controls: 0 for no effect and ±100 for the full control effect
Target sequence (O00167 whole entry, looked up): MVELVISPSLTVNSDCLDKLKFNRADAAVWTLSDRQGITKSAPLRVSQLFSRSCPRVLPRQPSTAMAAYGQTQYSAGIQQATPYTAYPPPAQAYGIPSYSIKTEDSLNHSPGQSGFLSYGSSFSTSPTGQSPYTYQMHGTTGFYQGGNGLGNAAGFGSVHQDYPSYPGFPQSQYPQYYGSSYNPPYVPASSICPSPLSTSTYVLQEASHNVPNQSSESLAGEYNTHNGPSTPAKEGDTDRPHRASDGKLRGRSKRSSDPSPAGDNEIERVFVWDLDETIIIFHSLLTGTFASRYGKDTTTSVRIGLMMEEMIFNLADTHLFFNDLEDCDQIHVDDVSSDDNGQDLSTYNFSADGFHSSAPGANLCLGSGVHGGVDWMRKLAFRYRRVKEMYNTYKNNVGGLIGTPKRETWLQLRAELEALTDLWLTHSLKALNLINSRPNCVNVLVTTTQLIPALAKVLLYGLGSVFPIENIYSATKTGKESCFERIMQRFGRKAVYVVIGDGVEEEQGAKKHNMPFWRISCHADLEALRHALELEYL
Target sequence (Q15475 whole entry, looked up): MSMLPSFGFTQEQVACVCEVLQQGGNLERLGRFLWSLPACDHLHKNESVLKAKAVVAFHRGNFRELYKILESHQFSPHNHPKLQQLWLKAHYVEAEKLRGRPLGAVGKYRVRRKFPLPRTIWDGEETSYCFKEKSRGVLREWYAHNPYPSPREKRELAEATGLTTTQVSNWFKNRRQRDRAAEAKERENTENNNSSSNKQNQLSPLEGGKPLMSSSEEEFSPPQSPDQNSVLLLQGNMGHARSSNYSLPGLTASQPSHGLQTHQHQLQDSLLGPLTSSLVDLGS
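AlphaScreen luminescence read after one hour at 37 °C in darkness. Pin-transferred compounds met GST-Six1 and His-Eya2 protein (5X stock 250 nM/500 nM) plus glutathione donor and Ni-chelate acceptor beads (5X, 50 ug/mL).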
The depositor's hits bear a star; ? = inconclusive; nt = no result given; & = joins results of further samples.

No.	molecule	TRPML1 ag	TRPML1 blocker	TRPV1 PAM	Six1-Eya2 blk	D2 PAM	CtBP-E1A inh
1	CCOC(=O)N1CCN(C(=O)Cn2ccc3ccccc3c2=O)CC1	-0.2	29.3	18.7	-0.2	-10.3	0.0
2	N#Cc1cnn2ccc(-c3ccc4c(c3)CCC4)nc12	2.2	21.1	-8.2	12.5	0.1	11.4
3	CS(=O)(=O)c1ccc2nc(NC(=O)c3cccs3)sc2c1	2.7	12.5	-5.5	0.5	6.8	7.0
4	COCCCNC(=S)N1CCN(c2ccccc2)CC1	0.0	-11.2	12.8	4.5	-8.4	22.0
5	COc1cc(C(=O)NCC(=O)NC(C)CCc2ccccc2)cc(OC)c1OC (stereo unspecified)	1.1	30.1	1.1	1.4	-10.2	-5.9
6	CCCCNC(=O)C1(C)CCCCN1Cc1ccccc1-c1ccccc1 (stereo unspecified)	-0.1	nt	nt	4.2	-1.6	6.2
7	CC(=O)OCc1cc2cc(C)ccc2[nH]c1=O	0.8	-8.8	-19.1	1.8	-9.6	-1.7
8	C[C@@H](CSc1ccc(Br)cc1)CN1CC[C@H](NC(=O)OCc2ccccc2)CCC1=O	-0.2&1.6	19.9	nt	-3.0	-11.4	-0.6

(next part)
No.	molecule	TRPML1 ag	TRPML1 blocker	TRPV1 PAM	Six1-Eya2 blk	D2 PAM	CtBP-E1A inh
9	CCN(CC)CCCNC(=O)CNC(=O)c1nn(-c2ccc(OC)cc2OC)c(=O)c2ccccc12	-0.4	-6.6	nt	-4.5	-3.1	-3.5
10	CN(CC(=O)Nc1ccc(F)cc1)C(=O)COC(=O)COc1ccc(C#N)cc1	-0.3	-13.4	4.0	6.1	-17.8	0.4
11	CCc1nnc(NC(=O)C2CC(=O)N(C3CCCCC3)C2)s1 (stereo unspecified)	0.0	-10.6	6.0	2.0	10.5	6.7
12	C/C(=N/NS(=O)(=O)c1ccc(C)cc1)c1ccc2c(c1)OCO2	0.4	24.9	10.3	-0.1	9.1	7.8
13	COc1ccc(N(CC(=O)Nc2cc(C)on2)S(=O)(=O)c2cc(C)ccc2C)cc1	0.2	-6.9	-6.8	-2.7	-4.1	-5.6
14	COc1ccc(C)cc1NC(=O)CN(C)S(=O)(=O)c1cc(C)ccc1OC	2.7	-13.0	-13.4	14.3	-20.2	5.9
15	CCN(CC(=O)Nc1cccc(F)c1)CC(=O)Nc1ccccc1OC	1.4	-12.3	-9.9	0.1	-10.1	3.2
16	Cc1ccc(C(=O)N/C(=C/c2ccc(Cl)cc2)C(=O)N2CCOCC2)cc1	0.4	-2.8	0.9	-13.6	-5.3	-23.5

Further structures.
No.	molecule	TRPML1 ag	TRPML1 blocker	TRPV1 PAM	Six1-Eya2 blk	D2 PAM	CtBP-E1A inh
17	COc1ccc2c(c1)OC[C@H]1[C@H]2N2C(=O)CNC(=O)[C@@]2(C)[C@H]1c1ccccc1	0.0	-3.1	nt	0.5	-4.1	6.8
18	Cc1ncc([N+](=O)[O-])n1CCOC(=O)c1ccccc1	0.0	7.0	-5.2	1.2	-0.3	-9.6
19	Cc1ccc(C(=O)C(C)OC(=O)c2cc(=O)[nH]c3ccccc23)cc1 (stereo unspecified)	3.7	27.8	8.2	17.4	-20.0	0.0
20	CC(C)(C)c1ccc(C(=O)N2CCC(=O)N(C(CO)Cc3ccccc3)CC2)cc1 (stereo unspecified)	7.8	3.2	-2.1	-4.1	-37.1	-1.9
21	Cc1cc(Cl)c2ccccc2n1	-0.2	-5.0	9.7	-5.3	-1.9	5.5
22	Cc1ccc(C2C(C(=O)c3cccs3)=C(O)C(=O)N2c2ccc(S(N)(=O)=O)cc2)cc1 (stereo unspecified)	1.5	5.6	7.0	2.3	-7.5	1.2
23	O=C1N(Nc2ccccc2)C(c2ccc(Br)cc2)C12CCCC2 (stereo unspecified)	0.8	-8.7	-4.7	-0.4	-0.2	3.5
24	Cc1ccc(N2C(=O)CC(NNC(=O)c3cccc(S(=O)(=O)N4CCCC4)c3)C2=O)cc1 (stereo unspecified)	1.6	-5.3	-3.9	3.8	-12.5	-3.0

(further entries)
No.	molecule	TRPML1 ag	TRPML1 blocker	TRPV1 PAM	Six1-Eya2 blk	D2 PAM	CtBP-E1A inh
25	Cc1ccc(C(=O)C(OC(=O)c2cnccn2)c2ccccc2)cc1C (stereo unspecified)	-0.8	13.6	-9.8	5.3	-18.3	5.7
26	COc1ccc(C2=Nn3c(nnc3-c3cccnc3)SC2)cc1OC	-0.2	1.1	2.4	-69.0*	-13.5	-76.7*
27	O=C(OCC(=O)N1CCN(C(=O)c2ccco2)CC1)c1ccccc1C(=O)c1ccc(Cl)cc1	1.0	-5.5	-5.6	-0.6	-9.6	5.1
28	Cc1ccc(NC(=O)CS(=O)CC(=O)NCC2OCCc3ccccc32)c(C)c1 (stereo unspecified)	2.0	9.0	-3.6	6.8	-5.5	-16.8
29	CCSc1nc(COC(=O)NC)c(COC(=O)NC)n1C	0.6	-15.7	nt	-1.1	-11.6	6.5
30	Cc1cc(C)nc(NC2=NCC(=O)N2c2cc(Cl)cc(Cl)c2)n1	0.2	8.2	1.6	6.2	8.3	-4.8
31	COc1ccc(N2CC(O)=C(c3nc(C)cs3)C2=N)cc1	0.0	4.6	27.6	-2.4	0.4	9.5
32	CC(Sc1nnc(-c2ccco2)n1N)C(=O)NCC1CCCO1 (stereo unspecified)	2.0	32.9	3.8	0.1	-2.0	-5.2

The list continues:
No.	molecule	TRPML1 ag	TRPML1 blocker	TRPV1 PAM	Six1-Eya2 blk	D2 PAM	CtBP-E1A inh
33	COc1cc(CC2COC(c3ccc(O)c(OC)c3)C2COC(C)=O)ccc1O (stereo unspecified)	nt	nt	7.4	-18.1	-24.5	-20.9
34	COc1ccc(NC(=O)/C(C#N)=C\c2cc(C)n(-c3ccc(Oc4ccc([N+](=O)[O-])cn4)cc3)c2C)cc1	-0.2	-0.9	15.5	1.4	-11.9	4.3
35	CCc1ccc(C(=O)NCc2cccs2)s1	-0.5	9.8	3.0	3.2	-1.1	5.3
36	COc1ccc(/C=C/c2nc(-c3ccccc3O)n[nH]2)cc1OC	0.8	4.6	-4.9	-13.7	?	-2.9
37	COC(=O)c1ccc(CSc2nc(N)cc(N)n2)cc1	-0.1	-15.0	19.9	-1.1	9.7	5.6
38	Cc1cc(C)cc(NC(=O)C(=O)NCCCN2CCCC2=O)c1	0.3	3.1	0.3	3.1	-6.7	-6.1
39	CCCNCCC(c1ccco1)c1ccccc1OC (stereo unspecified)	0.5	8.8	-6.9	-1.4	6.0	-8.9
40	COC(=O)c1ccc(NC(=O)C(OC)c2ccccc2)cc1 (stereo unspecified)	0.0	-0.8	-2.8	-27.7	6.6	-1.2

(next part)
No.	molecule	TRPML1 ag	TRPML1 blocker	TRPV1 PAM	Six1-Eya2 blk	D2 PAM	CtBP-E1A inh
41	COc1ccccc1NC(=O)CSc1nnc(C2CCCCC2)n1N	-0.7	5.6	-3.6	1.9	-5.6	nt
42	Fc1ccc(-n2nnc(-c3nccs3)n2)cc1	-0.5	-6.2	21.0	1.5	-2.5	5.1
43	CN(C)c1c(F)cc(C(=O)NC(=O)NCc2cccnc2)cc1F	1.6	41.6	-21.5	-0.4	-11.7	6.2
44	CCc1cccc(NC(=O)c2cc(S(=O)(=O)N3CCCCC3)ccc2N2CCOCC2)c1	-0.5	-11.4	nt	0.1	-12.7	-3.1
45	Cn1c(SCC(=O)Nc2cccnc2Cl)nc2ccccc21	0.8	14.8	nt	3.8	12.7	-0.5
46	O=C(COc1ccc(Cl)cc1)N1CCN(c2ncccn2)CC1	0.6	-0.5	8.0	7.6	-5.0	4.7
47	CCOC(=O)Cc1cc(OC)c(OC)cc1Cc1cc(OC)c(OC)cc1CC(=O)OCC	1.3	-8.9	0.7	-0.8	-4.2	0.2
48	O=C1Nc2ccccc2N=C(c2ccc3c(c2)OCO3)C1N(C(=O)c1ccc2ccccc2c1)C1CC1 (stereo unspecified)	-0.1	nt	nt	-22.4	-10.5	-22.4

Carrying on.
No.	molecule	TRPML1 ag	TRPML1 blocker	TRPV1 PAM	Six1-Eya2 blk	D2 PAM	CtBP-E1A inh
49	CCOCCCN(C(=O)c1snc(C(N)=O)c1N)C(C(=O)NC1CCCC1)c1ccc(O)cc1 (stereo unspecified)	-0.1	-12.0	16.5	0.4	-7.2	-0.3
50	Cc1ccc(NC(=O)C2CC(=O)N(C(C)C)C2)cc1Cl (stereo unspecified)	0.2	22.7	7.7	0.8	-3.2	4.0
51	CCN(CC)c1ccc(NC(=O)c2ccccc2)cc1S(=O)(=O)Nc1ccccc1OC	1.7	36.1	1.7	-1.5	10.6	-18.6
52	Nc1nc(NC(=O)CCCC(=O)O)nn1-c1ccccc1	-0.1	-10.9	11.9	-4.7	-7.3	-0.9
53	O=C(Nc1ccc(C(=O)N2CCOCC2)cc1)c1ccccc1Cl	-0.3	-3.5	nt	5.2	-7.6	-8.9
54	COc1ccccc1-c1nc(C#N)c(N2CCC(Cc3ccccc3)CC2)o1	0.4	54.6	22.6	?	-6.7	-23.0
55	CN(CC(=O)Nc1cccnc1Cl)S(=O)(=O)c1ccc(Cl)cc1	-0.9	16.0	1.2	3.9	11.4	7.5
56	COc1cccc(C(NC(=O)C2CCN(CCCOc3ccccc3)CC2)c2ccccn2)c1 (stereo unspecified)	9.8	nt	nt	-4.9	-16.5	-15.6

Carrying on:
No.	molecule	TRPML1 ag	TRPML1 blocker	TRPV1 PAM	Six1-Eya2 blk	D2 PAM	CtBP-E1A inh
57	Cc1ccccc1OCC(=O)NNC(=O)c1cc(S(=O)(=O)N(C)C)ccc1N1CCCC1	0.2	-14.2	9.1	-0.5	-13.2	9.3
58	COc1cccc(C(C)NC(=O)c2ccncc2)c1 (stereo unspecified)	1.2	-9.5	2.9	18.3	-3.3	7.4
59	COc1cc(OC)cc(/C(N)=N/O)c1	-0.1	-3.2	-6.1	-5.8	-0.9	-4.0
60	CCOc1ccc(NC(=O)Cn2c(=O)oc3ccccc32)cc1	0.3	-11.5	10.4	2.2	-8.5	-0.8
61	CC1CC(=O)N(CC(=O)Nc2ccc(Br)cc2)c2ccccc2S1(=O)=O (stereo unspecified)	-0.8	16.8	-6.6	1.6	-2.3	nt
62	COc1ccccc1N1CCN(C2CCCN(C(=O)CN3CCCCC3=O)C2)CC1 (stereo unspecified)	0.4	21.1	3.2	14.7	-19.3	-2.4

The order is random; 0.95% or so of the library scored in one or more.
